Source: PubChem BioAssay (Southern Research Institute)
Mtb growth = Mycobacterium tuberculosis H37Rv growth inhibition, putative kinase inhibitor library, confirmatory dose response (AID 2842). M. tuberculosis H37Rv growth inhibition; higher % means a stronger effect; some inactives read as strong as hits. one-dose inhibition, % at 10 µg/mL; IC90 in µg/mL for titrated hits. 24,000 compounds, 5.2% hits;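 active = confirmed in a dose series; inconclusive = mostly over 85% at the one dose but not retested; inactive = below 85% or not confirmed; about a fifth of its hits are not listed in these tables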;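 note: bacteria incubated one week before Alamar blue readout; 0% = bacteria only wells and 100% = bacteria with high antibiotic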
* hit, by the source's call; ? = inconclusive.

SMILES	Mtb growth
COc1ccc(Cl)cc1N/C=C(\C#N)c1nc(-c2ccc(C)c(C)c2)cs1	6.5%
O=C(CSc1ncc(CO)n1Cc1ccccc1)Nc1nccs1	2.0%
O=C(Oc1ccc(Nc2ncnc3ccccc23)cc1)c1ccc(F)cc1	73.5%
COc1ccc(OC)c2[nH]c(=O)c(CCNC(=O)C3c4ccccc4Oc4ccccc43)cc12	9.0%
Cc1ccc(C)c(NC(=O)Cn2c(=O)n(Cc3ccco3)c(=O)c3sc4ccccc4c32)c1	-5.7%
C/C(O)=c1/c(=O)nc2ccc(Cl)c3c2=c1c1ccccc1c3=O	10.1%
O=C(/C=C\c1ccc2c(c1)OCO2)Nc1c2c(nn1-c1ccc([N+](=O)[O-])cc1)CSC2	3.9%
Cc1cccc(-n2ncc3c(=O)[nH]cnc32)c1	11.2%
CCOc1ccc(CC(=O)NCCc2cc3ccc(OC)cc3[nH]c2=O)cc1	-2.4%
N#CC1=C(N)Oc2c(oc(CO)cc2=O)C1c1ccncc1 (stereo unspecified)	-14.2%
NC(=O)c1c(NC(=O)c2ccc(C(=O)c3ccccc3)cc2)sc2c1CCN(Cc1ccccc1)C2	-6.8%
CCC(C(=O)Nc1c(C(=O)Nc2ccc([N+](=O)[O-])cc2)oc2ccccc12)c1ccccc1 (stereo unspecified)	18.5%
O=C(Nc1nnc(-c2ccc(Cl)s2)o1)C1CCCCC1	6.45µg/mL*
Cc1cc(SCc2cccc(Cl)c2)nc(=O)[nH]1	-4.4%
O=[N+]([O-])c1ccc(S(=O)(=O)NCc2cccnc2)cc1	12.6%
Cc1ccc(-n2ncc3c(=O)n(CC(=O)Nc4ccc(C(N)=O)cc4)cnc32)c(C)c1	-4.0%
CCS(=O)(=O)c1ccc(C(=O)Nc2nnc(-c3ccco3)o2)cc1	74.7%
Cc1[nH]c2ccccc2c1C(c1cccs1)N1CCC(C(N)=O)CC1 (stereo unspecified)	20.5%
CCOc1c(OC)cccc1C1C(C(=O)OCc2ccccc2)=C(C)Nc2ncnn21 (stereo unspecified)	10.9%
COc1ccc(Cl)cc1NC(=O)c1cnc2n(c1=O)CCS2	9.0%
COc1cc(C(=O)NCCc2cc3ccc(C)c(C)c3[nH]c2=O)cc(OC)c1OC	-4.5%
CCOc1ccc(C(=O)NCCc2cc3c(C)ccc(C)c3[nH]c2=O)cc1OCC	0.5%
O=C(NCCCn1ccnc1)C(=O)c1c[nH]c2ccccc12	7.4%
O=C(Cc1ccccc1)NNC(=O)CC1SC(=O)NC1=O (stereo unspecified)	-7.1%
O=C(Nc1nnc(-c2ccccc2)o1)c1ccc2c(c1)CCCC2	15.5µg/mL*
Nc1nc(SCC(=O)Nc2nccs2)[nH]c(=O)c1NC(=O)c1cccs1	1.7%
Cc1ccc(-c2nnc(NC(=O)c3ccc(S(=O)(=O)N4CCCCC4C)cc3)o2)c(C)c1 (stereo unspecified)	-13.2%
COc1ccc(-c2nnc3ccc(SCC(=O)Nc4cccc(C)c4)nn23)cc1	1.3%
CCOc1ccc(-n2c(CNC(=O)c3ccccc3F)nnc2SCC(=O)OC)cc1	-10.2%
COc1cccc(/C=N/NC(=O)CNC(=O)c2ccc(OC)c(OC)c2)c1	-2.2%
O=C(/C=C/c1ccc([N+](=O)[O-])s1)Nc1nnc(-c2ccc3c(c2)CCCC3)o1	95.1%
CC(Oc1ccccc1)C(=O)Nc1c(C(=O)Nc2ccccc2)oc2ccccc12 (stereo unspecified)	7.9%
O=C(OCCN1C(=O)c2ccccc2C1=O)Oc1ccccc1	-9.5%
O=C(Nc1nnc(-c2ccc(F)cc2)o1)c1cccc([N+](=O)[O-])c1	13.2µg/mL*
CC1=C(C(=O)Nc2ccc(I)cc2)C(c2ccc(Cl)cc2)NC(=O)N1 (stereo unspecified)	34.5%
COc1ccc(-n2c(SCC(=O)Nc3cccc4ccccc34)nc3c(c2=O)SCC3)cc1	2.7%
NC(=O)c1cc2ccccc2oc1=Nc1ccc(Cl)cc1Cl	-2.7%
CN(C(=O)/C=C/c1ccccc1)c1nnc(C23CC4CC(CC(C4)C2)C3)s1	13.5%
CC(C)(C)C(=O)Nc1c(C(=O)Nc2ccc3c(c2)OCCO3)oc2ccccc12	-0.9%
COc1cc2c(=O)c(S(=O)(=O)c3ccc(Cl)cc3)cn(Cc3ccccc3F)c2cc1OC	11.6%
COc1ccc(OC)c2[nH]c(=O)c(CCNC(=O)c3c(F)cccc3F)cc12	8.5%
CCN(CC)C(=S)SCC(=O)c1cc(C)n(-c2ccccc2)c1C	32.6%
O=C(COc1ccc(Cl)cc1)Nc1nnc(-c2ccccc2)s1	12.4%
CCOC(=O)c1c(NC(=O)C2CC2)sc2c1CC(C)(C)NC2(C)C	6.1%
Cc1ccc2cc(CCNC(=O)Cc3ccccc3)c(=O)[nH]c2c1C	0.0%
CCN(C(=O)CSc1nncc(=O)[nH]1)c1ccccc1	-16.1%
Cc1c(C(N)=O)sc2ncn(Cc3ccc(C(=O)O)cc3)c(=O)c12	-26.6%
NC(=O)c1ccc(NC(=O)CSc2nnc(CNC(=O)c3ccc(F)cc3)o2)cc1	-5.8%
O=C(Nc1nc(-c2ccccn2)cs1)c1ccc(N2C(=O)CCC2=O)cc1	-2.5%
COc1cc(OC)cc(C(=O)N2CC(=O)Nc3ccc(Cl)cc3C2c2ccc(F)cc2)c1 (stereo unspecified)	61.7%
COc1ccccc1C(=O)Nc1ncc(S(=O)(=O)c2ccc([N+](=O)[O-])cc2)s1	-6.1%
COc1ccc(S(=O)(=O)CCC(=O)Nc2nc3ccc(C)cc3s2)cc1	9.2%
O=C(Nc1nnc(-c2ccccc2Cl)s1)c1cc(Br)ccc1Cl	-2.6%
CC1(C)CC(=O)c2sc(NC(=O)c3cccc(NS(=O)(=O)c4ccc(Cl)cc4)c3)nc2C1	-5.7%
Cc1oc2cc(OCC#N)ccc2c(=O)c1-c1ccc2c(c1)OCCCO2	11.9%
COc1ccc(C(=O)N(CCCn2ccnc2)c2nc3c(C)cc(C)cc3s2)cc1OC	?
CC1=NN(CCCO)c2nc3c(c(=O)n(C)c(=O)n3C)n2C1	-8.9%
CC(C)c1ccc(/C=N/Nc2ncnc3nc[nH]c23)cc1	48.4%
COc1cccc(N2CC(NC(=O)Nc3nc4ccc(C)cc4s3)CC2=O)c1 (stereo unspecified)	9.9%
COc1ccc(-n2c(=O)[nH]c3c(C(N)=O)nc(-c4ccc(Cl)cc4Cl)nc32)cc1	6.1%

Next structures follow:
SMILES	Mtb growth
Cc1ccc(NC(=O)CC2SC(N)=NC2=O)c([N+](=O)[O-])c1 (stereo unspecified)	-9.2%
CC12CC(NC(=O)N1Cc1ccccc1)c1ccccc1O2 (stereo unspecified)	-4.5%
CC(=O)N1CCc2c(sc(NC(=O)/C=C/c3cccs3)c2C(N)=O)C1	-2.5%
NS(=O)(=O)c1ccc(NC(=O)CC2CCS(=O)(=O)C2)cc1 (stereo unspecified)	-19.6%
O=C(Nc1cccc(F)c1)c1ccc2nc[nH]c2c1	-1.3%
O=C(Cn1cc(C(=O)c2ccc(Cl)cc2)c(=O)c2cc3c(cc21)OCCO3)Nc1ccc2c(c1)OCO2	-2.3%
COC(=O)c1c(NC(=O)CC2Nc3cc(C)c(C)cc3NC2=O)sc2c1CCC(C)C2 (stereo unspecified)	-0.2%
CC(=O)c1sc(NC(=O)c2ccccc2Oc2ccccc2)nc1C	13.5%
COc1ccccc1-n1c(=O)[nH]c2c(C(N)=O)nc(-c3cccnc3)nc21	8.2%
CCOC(=O)c1nn(-c2ccc(OC)cc2)c(=O)c2c(NC(=O)CC3CCCCC3)scc12	36.3%
CCCn1c(NC(C)CC)nc2c1c(=O)n(C)c(=O)n2C (stereo unspecified)	-10.5%
Cc1ccc(NC(=O)Cn2c(=O)n(Cc3ccccc3)c(=O)c3sc4ccccc4c32)cc1	-4.3%
O=C(Nc1nnc(C2=COCCO2)o1)c1ccc(-c2ccccc2)cc1	8.24µg/mL*
COc1ccc2c(c1)c(=O)c(S(=O)(=O)c1ccc(F)cc1)cn2Cc1cccc(F)c1	7.0%
O=c1[nH]c(N/N=C/c2ccc(Cl)cc2)nnc1-c1ccccc1	0.6%
CCCCCn1c(=S)[nH]c2c1c(=O)[nH]c(=O)n2C	5.6%
O=C(O)c1c2c(nc3ccccc13)CCN(Cc1ccccc1)C2	-0.8%
Clc1nc(Nc2cccc3ccccc23)nc(N2CCOCC2)n1	13.0%
C=CCn1c(N2CCN(Cc3ccc(F)cc3)CC2)nc2c1c(=O)[nH]c(=O)n2C	-0.2%
Cc1cccc(-c2nnc(NC(=O)COc3ccc(Cl)cc3)s2)c1	8.1%
CC(C)c1nnc(NC(=O)/C=C/c2ccco2)s1	-4.6%
O=C1NC(=Nc2ccc(O)cc2)S/C1=C\c1cccnc1	-0.1%
Cc1c(Cc2ccc3c(c2)OCO3)sc(NC(=O)/C=C\c2ccccc2Cl)c1C#N	-4.4%
O=C(Nc1nc2ccc3ccccc3c2s1)c1cccc(N2C(=O)CCC2=O)c1	1.4%
COc1ccc(OC)c2[nH]c(=O)c(CCNC(=O)C34CC5CC(CC(C5)C3)C4)cc12	2.6%
Cc1cccc(-c2nnc(NC(=O)c3c(F)cccc3F)s2)c1	12.6%
Cc1cc(C)cc(-n2nc3c(c2NC(=O)c2ccco2)CSC3)c1	21.9%
CCOc1ccccc1NC(=O)c1oc2ccccc2c1NC(=O)c1cc(C)cc(C)c1	-4.1%
O=C(Nc1nc(-c2ccc3c(c2)OCCO3)cs1)c1cccc(Cl)c1	-0.8%
CCOC(=O)CCC(=O)Nc1c(C(=O)Nc2ccc(F)cc2)oc2ccccc12	-1.6%
Cc1ccccc1CN1CCN(c2nc3c(c(=O)[nH]c(=O)n3C)n2Cc2ccccc2F)CC1	27.2%
Cc1ccc(-n2c(SCC(=O)Nc3ccccc3)nc3c(c2=O)SCC3)cc1	11.5%
CCOc1ccccc1-c1nc(C(N)=O)c2[nH]c(=O)n(-c3ccccc3F)c2n1	19.3%
Cc1nnc(NC(=O)CSc2nnc(CNC(=O)c3cccc([N+](=O)[O-])c3C)n2-c2cccc(C(F)(F)F)c2)s1	3.1%
CC(Br)Cn1c(Br)nc2c1c(=O)[nH]c(=O)n2C (stereo unspecified)	-12.1%
N#Cc1c(C(=O)NC2CC2)sc2nc3c(c(-c4ccco4)c12)CC/C3=C/c1ccco1	-1.7%
COc1ccc(NC(=O)c2oc3ccccc3c2NC(C)=O)cc1OC	-5.4%
O=C1NC(c2ccc(OCc3ccccc3)cc2)C(C(=O)c2ccccc2)C(O)(C(F)(F)F)N1 (stereo unspecified)	36.5%
COc1ccc(-c2nnc(S)o2)cc1	9.3%
COc1cc(-c2cc(=NCC(=O)O)c3cc(C)c(C)cc3o2)ccc1O	12.1%

The final two records of the section above open the next one.
SMILES	Mtb growth
COc1ccc(-c2nnc(S)o2)cc1	9.3%
COc1cc(-c2cc(=NCC(=O)O)c3cc(C)c(C)cc3o2)ccc1O	12.1%
CCOC(=O)c1oc2ccccc2c1NC(=O)c1ccc(C)cc1	37.8%
CCOc1ccc(-n2nnc3c(=O)n(CC(=O)NCC4CCCO4)cnc32)cc1 (stereo unspecified)	6.6%
CCOC(=O)c1c(NC(=O)c2ccc3ncsc3c2)sc2c1CCN(C(=O)OCC)C2	11.5%
COC(=O)c1c(NC(=O)c2oc3cc(C)c(C)cc3c2C)sc2c1CCCC2	-1.9%
COc1ccccc1NC(=O)CSc1nc(N)c(NC(=O)c2ccc(Cl)cc2)c(=O)[nH]1	0.8%
COc1ccccc1C(=O)NC1CC(=O)N(c2ccc(C)c(C)c2)C1 (stereo unspecified)	4.3%
O=C(Nc1sc2c(c1-c1nc3ccccc3s1)CCCC2)c1ccc(Cl)cc1Cl	4.1%
CN(C)c1nc2c(c(=O)[nH]c(=O)n2C)n1CCCOc1ccccc1	-3.4%
Cc1ccccc1CSc1nnc2[nH]c(=O)ccn12	-10.4%
CCOC(=O)c1oc2ccccc2c1NC(=O)Cc1ccccc1	11.4%
CCCc1[nH]nc2c1C(c1ccc(O)c(O)c1)C(C#N)=C(N)O2 (stereo unspecified)	-3.3%
C=CCNC(=O)CSc1nc2sc3c(c2c(=O)[nH]1)CCCC3	31.1%
COc1ccccc1-c1ccc(=O)n(CC#N)n1	-3.6%
O=C(Nc1cccc(Cl)c1)c1oc2ccccc2c1NC(=O)c1c(F)cccc1Cl	4.6%
Fc1ccc2nc(Nc3nc4c(F)cc(F)cc4s3)sc2c1	72.5%
CCOc1ccccc1NC(=O)CN1C(=O)C(=O)c2ccccc21	-3.0%
Cc1cc(O)c(/C=N/c2ccccn2)c(=O)o1	-15.4%
Cc1ccc([N+](=O)[O-])cc1NC(=S)NC(=O)c1ccccc1	-2.2%

Molecules from the list above with two or more sulfur atoms:
SMILES	Mtb growth
O=C(CSc1ncc(CO)n1Cc1ccccc1)Nc1nccs1	2.0%
Nc1nc(SCC(=O)Nc2nccs2)[nH]c(=O)c1NC(=O)c1cccs1	1.7%
COc1ccc(-n2c(SCC(=O)Nc3cccc4ccccc34)nc3c(c2=O)SCC3)cc1	2.7%
CCN(CC)C(=S)SCC(=O)c1cc(C)n(-c2ccccc2)c1C	32.6%
COc1ccccc1C(=O)Nc1ncc(S(=O)(=O)c2ccc([N+](=O)[O-])cc2)s1	-6.1%
COc1ccc(S(=O)(=O)CCC(=O)Nc2nc3ccc(C)cc3s2)cc1	9.2%
CC1(C)CC(=O)c2sc(NC(=O)c3cccc(NS(=O)(=O)c4ccc(Cl)cc4)c3)nc2C1	-5.7%
CC(=O)N1CCc2c(sc(NC(=O)/C=C/c3cccs3)c2C(N)=O)C1	-2.5%
NS(=O)(=O)c1ccc(NC(=O)CC2CCS(=O)(=O)C2)cc1 (stereo unspecified)	-19.6%
Cc1ccc(-n2c(SCC(=O)Nc3ccccc3)nc3c(c2=O)SCC3)cc1	11.5%
Cc1nnc(NC(=O)CSc2nnc(CNC(=O)c3cccc([N+](=O)[O-])c3C)n2-c2cccc(C(F)(F)F)c2)s1	3.1%
CCOC(=O)c1c(NC(=O)c2ccc3ncsc3c2)sc2c1CCN(C(=O)OCC)C2	11.5%
O=C(Nc1sc2c(c1-c1nc3ccccc3s1)CCCC2)c1ccc(Cl)cc1Cl	4.1%
C=CCNC(=O)CSc1nc2sc3c(c2c(=O)[nH]1)CCCC3	31.1%
Fc1ccc2nc(Nc3nc4c(F)cc(F)cc4s3)sc2c1	72.5%

Some of the compounds tested; rates above refer to the full screens.
